Source: PubChem
eIF4H inh – human eIF4H binding inhibitors, primary screen, translation initiation inhibitor project, biochemical, uHTS, fluorescence polarization | eIF4H fluorescence polarization binding assay | 290,000 compounds, 0.94% hits | Eukaryotic translation initiation factor 4H (Homo sapiens), Q15056 | inhibition, % at 35 µM;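 active means 50% or more with normal probe brightness, or confirmed in later tests; inconclusive means above 50% with abnormal brightness, or retests that disagree; inactive means below 50% or failed in later tests; about a fifth of its hits are not listed in these tables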;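 further: calls also rest on retests at 20 µM and on dose response follow-up; 0% = protein and probe with vehicle and 100% = probe without protein; strong numbers were not always called active; many hits fall short of the cut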
PABP polyA inh – PABP poly(A) RNA binding inhibitors, primary screen, biochemical, fluorescence polarization, uHTS; Polyadenylate-binding protein 1 (Homo sapiens), P11940; inhibition, % at 35 µM; 290,000 compounds, 1% hits;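 active means 50% or more with normal probe brightness, or confirmed in later tests; inconclusive means above 50% with abnormal brightness, or retests that disagree; inactive means below 50% or failed in later tests; about a fifth of its hits are not listed in these tables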;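 further: calls also rest on retests at 20 µM and on dose response follow-up; controls were probe without protein and protein plus probe with vehicle; some compounds called inactive have numbers as strong as hits; many hits fall short of the cut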
Target sequence (P11940 whole entry, looked up): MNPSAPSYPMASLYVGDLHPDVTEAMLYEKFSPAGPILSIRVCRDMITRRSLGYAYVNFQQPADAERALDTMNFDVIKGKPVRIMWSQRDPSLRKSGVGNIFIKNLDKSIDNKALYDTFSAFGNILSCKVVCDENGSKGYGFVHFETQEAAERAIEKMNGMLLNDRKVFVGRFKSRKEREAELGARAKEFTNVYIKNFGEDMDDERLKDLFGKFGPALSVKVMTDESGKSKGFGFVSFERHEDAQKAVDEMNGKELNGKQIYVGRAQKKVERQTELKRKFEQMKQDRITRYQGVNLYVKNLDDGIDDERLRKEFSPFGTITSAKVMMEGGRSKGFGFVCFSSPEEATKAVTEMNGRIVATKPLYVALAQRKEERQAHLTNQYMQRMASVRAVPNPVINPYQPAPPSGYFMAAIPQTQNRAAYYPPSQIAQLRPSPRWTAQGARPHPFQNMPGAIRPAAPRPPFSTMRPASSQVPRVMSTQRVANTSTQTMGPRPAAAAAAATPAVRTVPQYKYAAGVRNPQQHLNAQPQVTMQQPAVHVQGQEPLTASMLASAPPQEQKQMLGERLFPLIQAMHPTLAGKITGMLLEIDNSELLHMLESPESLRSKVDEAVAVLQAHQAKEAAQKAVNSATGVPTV
MT1-MMP act inh – blockers of MT1-MMP proenzyme processing, primary screen, HT1080 RFP-PRO-GFP cells, GFP/RFP fluorescence. Matrix metalloproteinase-14 (Homo sapiens), P50281. GFP/RFP ratio fluorescence, overnight; percent of plate control window, DMSO zero. GFP/RFP ratio change, % at 20 µM. 360,000 compounds, 0.061% hits. AID 651647, 2012;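 active means GFP/RFP ratio change of at least 30% with cell ATP level not reduced by more than half and red fluorescence within 50% of control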; further: strong numbers were not always called active
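Material: RFP-PRO-GFP reporter HT1080 cells. Dosing: single-point 20 µM compound, 1% DMSO. Controls: DMSO and RFP-L50D-GFP cell wells. Timing: cells overnight before dosing, compound overnight, 37 °C, 5% CO2. Measure: GFP/RFP fluorescence ratio.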
UUG fidelity – modulators of yeast start codon fidelity, primary screen, whole organism, S. cerevisiae, single point, plate reader. 350,000 compounds, 0.13% hits. S. cerevisiae UUG-firefly luciferase reporter, luminescence/redox ratio. activity score, % at 18.7 µM;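 active means replicate mean at a twofold rise or more, about +100% in these data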;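 further: firefly luciferase made from a UUG start codon reports start codon fidelity; reporter light over untreated wells divided by growth signal over untreated wells; some hits fall short of that in this replicate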
HIV Env fusion – inhibitors of HIV-1 Env-driven cell-cell fusion, primary screen, HeLa-JRFL effector, CEM21 target cells, luciferase; inhibition, % at 12.3 µM; 360,000 compounds, 1.1% hits;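 active means mean replicate inhibition score of at least 50 and every replicate individually at or above 50; inconclusive means only one of the two criteria met; inactive means mean below 50 and not all replicates reaching 50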;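 further: 0% = plate neutral controls and 100% = maraviroc near 300 nM; one replicate is shown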
CSC inhib – cancer stem cell viability inhibitors, primary screen, luminescence; cancer stem cell-like cells viability; inhibition, % at 7.5 µM; 300,000 compounds, 1.1% hits; AID 2717, 2010;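 active means mean at 75% or more and at least half the replicates too; inconclusive means mean and replicates disagree; tested in HMLE shEcad cells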;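 further: 0% = median of negative and 100% = median of positive control wells; the first replicate is given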
Rce1 inh – yeast Rce1p protease inhibitors, primary screen, biochemical, fluorescence, cell-free homogeneous; CAAX prenyl protease 2 (Saccharomyces cerevisiae (strain ATCC 204508 / S288c)), Q03530; yeast membranes, quenched prenylated peptide cleavage fluorescence; calls only; 290,000 compounds, 0.27% hits;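 active means fall in fluorescence gain of 50% or more versus controls, with final raw signal at or below 3038400; inconclusive means same 50% fall but final raw signal above 3038400; inactive means fall in fluorescence gain under 50%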;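 further: plate controls were neutral control wells for no effect and wells lacking membranes for full effect; tested at 10 µM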
Target sequence (Q03530 whole entry, looked up): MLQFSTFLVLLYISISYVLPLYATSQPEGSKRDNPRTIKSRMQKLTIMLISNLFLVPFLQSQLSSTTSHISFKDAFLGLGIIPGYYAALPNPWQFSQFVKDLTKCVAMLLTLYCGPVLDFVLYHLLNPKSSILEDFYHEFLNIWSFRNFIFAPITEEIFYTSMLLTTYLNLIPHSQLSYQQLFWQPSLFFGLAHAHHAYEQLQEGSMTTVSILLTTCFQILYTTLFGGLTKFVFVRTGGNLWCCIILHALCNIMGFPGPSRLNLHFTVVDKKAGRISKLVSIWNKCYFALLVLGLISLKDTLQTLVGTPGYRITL
eIF4H inh retest – also measured in eIF4H inh; calls as there; inhibition, %; compound at 20 µM; confirmation average;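 mean of two retest wells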
PABP polyA inh retest – further read-out of PABP polyA inh, marked with its call; inhibition, %; compound at 20 µM; confirmation repeats;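 mean of two retest wells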
MT1-MMP act inh RFP – also measured in MT1-MMP act inh; calls as there; RFP signal change, %; measured here: RFP expression control read;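 0 = vehicle wells; hits needed this value within 50% of zero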
Numbers without * were called inactive; i = inactive; ? = inconclusive; nt = no result given. This is a subset (hit frequency here may not be typical).

SMILES | eIF4H inh | PABP polyA inh | MT1-MMP act inh | MT1-MMP act inh RFP | UUG fidelity | HIV Env fusion | CSC inhib | Rce1 inh | others
CC(C)N=C(NC#N)SCc1ccc(F)cc1 | 6 | 2 | -4 | -6 | -22 | -4 | -4 | i
Cc1ccc(S(=O)(=O)N2CCN(C(=O)COC(=O)c3ccc(O)cc3)CC2)c(C)c1 | nt | nt | -1 | 0 | nt | 16 | nt | i
CCOc1ccc(N2CC(C(=O)Nc3ccccc3OC)CC2=O)cc1 (stereo not given) | -1 | -8 | -1 | 0 | 3 | -8 | -19 | i
CN(c1ccccc1)S(=O)(=O)c1cccc(NC(=O)Cn2cnc3c2c(=O)n(C)c(=O)n3C)c1 | -14 | 8 | -2 | -10 | nt | 15 | -19 | i
COc1ccccc1OCCNC(=O)c1ccc(C)o1 | nt | nt | 0 | 3 | 3 | -8 | -7 | i
CCOc1ccc(N=c2scc(-c3ccccc3)n2CCO)cc1 | -9 | -6 | -11 | -22 | -9 | nt | -2 | i
Cc1ccc(C(=O)NCC(=O)Nc2ccc(F)c(F)c2F)cc1 | -7 | 2 | 0 | 0 | 0 | 4 | -16 | i
CCCOC1CCCN(C(=O)c2cc(Cl)c(Cl)cc2C(=O)O)C1 (stereo not given) | -9 | -3 | 0 | -2 | -4 | 18 | nt | i
CC1CCCC(NC(=O)CSc2ccc(F)cc2)C1C (stereo not given) | -6 | 20 | -1 | -2 | 19 | 10 | -12 | i
NNC(=O)CCCNc1ncc(C(F)(F)F)cc1Cl | -28 | 69 | 0 | 0 | -15 | 6 | -5 | i | eIF4H inh retest=-2;PABP polyA inh retest=-2
COc1cc(CN2CCNC(=O)C2CC(=O)NCCC2=CCCCC2)cc(OC)c1 (stereo not given) | 4 | -1 | -4 | 1 | -6 | 15 | nt | i
COc1ccc(C(=O)NC2CCc3ccccc32)cc1OC1CCN(C(C)C)CC1 (stereo not given) | 1 | 16 | -2 | 4 | 1 | -16 | 1 | i
CC1CCCC(NC(=O)CSC2CCCCC2)C1C (stereo not given) | 3 | -6 | -1 | -2 | nt | 7 | -5 | i
O=C(Nc1ccccc1F)c1ccc(OCc2ccccc2)cc1 | -7 | -7 | 1 | -2 | -20 | -12 | 15 | i
CCOC(=O)CC(C)(C)/C(C)=N/Nc1ccc([N+](=O)[O-])cc1[N+](=O)[O-] | 1 | -1 | 9 | 1 | nt | 19 | 22 | nt
O=C(Nc1ccc(N2CCOCC2)cc1)c1ccncc1 | 3 | 15 | 6 | 1 | -7 | nt | -2 | i
CC1=NNC(=O)C(CC(=O)Nc2ccc(Cl)c(Cl)c2)C1 (stereo not given) | -2 | 1 | 5 | 2 | nt | 32 | -6 | i
COc1ccc(C2NC(=O)c3ccccc3N2)c(OC)c1OC (stereo not given) | nt | nt | 1 | 1 | -10 | -44 | nt | nt
O=C(COc1ccc2ccccc2c1)Nc1ccc(Cc2ccncc2)cc1 | 2 | 4 | 4 | 1 | -9 | nt | nt | i
Nc1cc(C(=O)OCC(=O)Nc2cccc(S(=O)(=O)N3CCOCC3)c2)ccc1Cl | nt | nt | -1 | 1 | -6 | nt | -1 | nt
Fc1ccc(CNC(=S)NC2CCCC2)cc1 | 2 | 2 | 4 | -4 | nt | 12 | 10 | i
CCOc1ccc(S(=O)(=O)N(CC(=O)Nc2cccnc2)c2ccc(F)cc2)cc1 | -2 | 4 | 0 | 0 | -12 | ? | 5 | i
COC(=O)c1ccc(NC(=O)COC(=O)CSc2nc(C)cc(C)n2)cc1 | -2 | 10 | 6 | -3 | 3 | nt | -9 | i
CCOc1cccc2cc(C(=O)NCCC3=CCCCC3)c(=O)oc12 | -2 | 11 | -1 | 1 | nt | -13 | -15 | i
Cc1cc(C)cc(NC(=O)C(OC(=O)Cn2cnc3c2c(=O)n(C)c(=O)n3C)c2ccccc2)c1 (stereo not given) | nt | nt | -1 | 0 | -6 | -39 | -1 | i

Structural class, the entries above with an aryl thioether with sulfur outside any ring.
SMILES | eIF4H inh | PABP polyA inh | MT1-MMP act inh | MT1-MMP act inh RFP | UUG fidelity | HIV Env fusion | CSC inhib | Rce1 inh | others
CC1CCCC(NC(=O)CSc2ccc(F)cc2)C1C (stereo not given) | -6 | 20 | -1 | -2 | 19 | 10 | -12 | i
COC(=O)c1ccc(NC(=O)COC(=O)CSc2nc(C)cc(C)n2)cc1 | -2 | 10 | 6 | -3 | 3 | nt | -9 | i

(more compounds)
SMILES | eIF4H inh | PABP polyA inh | MT1-MMP act inh | MT1-MMP act inh RFP | UUG fidelity | HIV Env fusion | CSC inhib | Rce1 inh | others
Cc1sc2ncnc(SCC(=O)NCC(C)C)c2c1C | -2 | -8 | -1 | 0 | -12 | -41 | 16 | i
CCN(CC)CCNC(=S)Nc1ccc(Cl)cc1 | 8 | -6 | 2 | 5 | nt | -19 | -26 | i
Cc1ccc(C)c(SCC(=O)NCC(c2ccco2)N2CCCCC2)c1 (stereo not given) | nt | nt | 1 | 0 | -11 | 3 | 3 | i
O=C(O)c1cccc(NC(=O)c2ccc3c(c2)C(=O)N(C2CCCCC2)C3=O)c1 | 5 | 12 | 1 | -1 | -48 | -78 | -18 | i
COc1ccccc1C1=Nc2cccc3cccc(c23)N1 | 100* | 65* | 17 | 5 | -11 | nt | nt | i | eIF4H inh retest=108*;PABP polyA inh retest=86*
Cc1cccc2cc(CN(Cc3ccco3)C(=O)c3ccncc3)c(=O)[nH]c12 | -7 | 4 | 1 | -3 | -9 | nt | -3 | i
COc1ccc(CC(=O)NCCCCc2ccccc2)cc1OC | nt | nt | 4 | -7 | nt | 8 | 3 | i
CC(=O)c1ccc(NC(=O)C2CCCO2)cc1 (stereo not given) | -6 | 0 | 1 | 4 | -15 | -1 | -13 | i
Cc1coc2cc3oc(=O)c(CC(=O)N4C[C@H]5C[C@@H](C4)c4cccc(=O)n4C5)c(C)c3cc12 | -11 | 3 | 7 | 6 | 5 | nt | 2 | i
CCc1cc(OCCN(C)C)ccc1Cl | -2 | 4 | 3 | 3 | nt | 23 | -30 | i
Cc1cc(OCn2ccc(C(=O)O)n2)ccc1Cl | -5 | 9 | 0 | 5 | nt | nt | -13 | i
O=C(Cc1cccc2ccccc12)NN1C(=O)C2C(C1=O)C1C=CC2C12CC2 (stereo not given) | -2 | 33 | 5 | 5 | nt | -14 | -11 | i
Cc1ccc(NC(=S)NC2CC3CCCC(C2)N3Cc2ccco2)cc1 (stereo not given) | 26 | -10 | 5 | 1 | -12 | -18 | -8 | i
Cc1ccsc1C(=O)N(CC(C)C)c1c(N)n(Cc2ccccc2)c(=O)[nH]c1=O | 1 | 6 | -1 | 0 | 10 | 11 | 2 | i
COc1ccc(S(=O)(=O)NNC(=O)Nc2ccc(C)cc2C)c(OC)c1 | 0 | -9 | -4 | 0 | -10 | -59 | -5 | i
CCOc1ccc(CNC(=O)Cn2nc(C)c3c(C)n(-c4ccc(C)cc4)nc3c2=O)cc1 | 16 | -4 | 8 | -8 | -13 | 7 | -6 | i
Cc1noc(C)c1C(=O)Nc1sc2c(c1C(N)=O)CCCCC2 | -3 | 0 | 1 | 0 | nt | nt | 1 | i
O=C(NCc1ccccn1)Nc1ccc(F)cc1 | -5 | -1 | 2 | -1 | -22 | -53 | -5 | i
Cc1ccc(S(=O)(=O)NN2CCCCCC2)cc1 | nt | nt | 11 | 8 | -17 | -10 | nt | nt
O=C(c1cccs1)N1CCOCC1 | 5 | 4 | -4 | -1 | 3 | nt | 0 | i
CCOC(=O)Cn1nc(-c2ccccc2)nc1-c1ccccc1 | 6 | -2 | -3 | -1 | nt | -15 | 5 | i
COCCN(C(=S)Nc1cc(C)ccc1C)C(C)c1cccnc1 (stereo not given) | -5 | 7 | 3 | 7 | nt | 31 | 6 | i
COc1ccccc1NC(=O)Cn1c2ccc(F)cc2c2nc3n(c(=O)c21)CCS3 | -5 | 1 | -2 | -4 | -23 | -1 | -9 | i
COc1ccc(NC(=O)Nc2cccc(OC)c2)cc1 | nt | nt | 3 | 1 | -10 | -63 | -2 | i
O=C(c1ccc(OC2CCN(CCO)CC2)cc1)N1CCCC1 | -4 | -2 | -1 | 1 | -22 | nt | -3 | nt

(next part)
SMILES | eIF4H inh | PABP polyA inh | MT1-MMP act inh | MT1-MMP act inh RFP | UUG fidelity | HIV Env fusion | CSC inhib | Rce1 inh | others
Cc1c(Cl)cnc(NC(=O)COC(=O)CCS(=O)(=O)c2ccccc2)c1Cl | 18 | 17 | -2 | 6 | -12 | nt | -7 | i
Cc1ccc2nc(NC(=O)/C=C/c3ccc4c(c3)OCO4)sc2c1 | -4 | 5 | -9 | -2 | -14 | 29 | 49 | i
COCOCCn1cc(CN2CCS(=O)(=O)N(Cc3ccc(-c4ccc(OC)nc4)cc3)C(C(C)C)C2=O)nn1 (stereo not given) | nt | nt | 2 | 0 | 5 | -24 | nt | nt
CCCc1c(C(=O)N/N=C(\CC)c2ccccc2)nnn1-c1nonc1N | nt | nt | 5 | 2 | -12 | 10 | nt | nt
COc1ccccc1CCNC(=O)C1CCN(C(=O)/C=C/c2ccccc2)CC1 | -9 | 14 | -2 | 2 | 8 | -11 | 2 | i
C/C(=N\NC(=O)CCc1ccc(S(=O)(=O)N2CCOCC2)cc1)c1ccc(OC(F)F)cc1 | -14 | -2 | 5 | 4 | -1 | 10 | -6 | i
CCCCCn1c(SCC(=O)OCC)nc2cc(C(=O)NCc3ccco3)ccc2c1=O | -1 | -6 | -5 | -3 | -13 | -65 | 4 | i
COc1cc(/C=N/Nc2snc(SC)c2C#N)cc(OC)c1OC | 2 | -3 | -7 | -26 | -15 | nt | -17 | i
CC1(C)CC(N2CCN(C(c3ccccc3)c3ccccc3)CC2)=CC(=[N+]2CCCCC2)C1 | -3 | 28 | -19 | -34 | -3 | 49 | 30 | i
CC(C)NC(=O)CSc1nc(N)c(NC(=O)c2ccco2)c(=O)[nH]1 | 7 | 4 | 0 | 4 | -13 | -10 | nt | i
Cc1ccc(CN(CCO)CCO)cc1 | 5 | 3 | 4 | 0 | -11 | -5 | 0 | i
CCc1n[nH]c(=S)n1/N=C/c1c(O)ccc2ccccc12 | -2 | 2 | 1 | 0 | -6 | 56* | -10 | i
Cc1ccc2nc(Cl)c(/C=N/Nc3nc(C)cc(C)n3)c(=O)n2c1 | 81 | -4 | -6 | 17 | -14 | 30 | 11 | i | eIF4H inh retest=6;PABP polyA inh retest=5
CCOc1ccc(S(=O)(=O)Nc2nc3ccccc3nc2Nc2ccc(N3CCOCC3)cc2)cc1 | ? | -28 | -29 | -1 | -7 | -13 | 21 | i
Cc1cccc(N2CCN(C3=NC(=O)C(=C4CCCCC4)S3)CC2)c1 | -11 | -8 | 0 | -11 | -5 | -7 | -2 | i
Cc1cc(=O)oc2cc(OCC(=O)NCCN3CCOCC3)c(Cl)cc12 | -4 | 11 | -1 | 5 | nt | -6 | 3 | i
COc1ccc(S(=O)(=O)NCC(=O)NCc2cc(=O)n(C)c(=O)n2C)cc1C | -7 | 5 | -2 | 2 | -3 | -1 | -2 | i
Oc1ccccc1Oc1c(F)c(F)nc(N2CCCC2)c1F | 34 | 6 | -4 | -2 | -17 | 2 | 13 | i
